Menin MLL FP FL: qHTS Assay for Inhibitors Targeting the Menin-MLL Interaction in MLL Related Leukemias: Competition With Fluorescein Labeled MLL-derived Peptide | 290,000 tested, under 10 active | FP activity change, % at 61.4 µM | Fluorescence polarization, fluorescein-MLL peptide displacement from menin | AID 1766, 2009; inconclusive = falling polarisation curve, or a change in total fluorescence; inactive = total fluorescence flat and polarisation flat or rising; no compound was filed as active; the % refers to the polarisation; negative = inhibition;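 also: % of control where 0% means no effect; inhibitors lower the polarisation; unlabelled MLL peptide was the positive control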
TRPV1 potentiator: HTS Assay for Compounds that Act as Potentiators of the Vanilloid Receptor 1. Transient receptor potential cation channel subfamily V member 1 (Homo sapiens), Q8NER1. TRPV1-expressing cells, Fluo-8 calcium influx, capsaicin EC20 potentiation; host cell line not named in the record; control for the full effect not named in the record. potentiation, % at 8.33 µM. 320,000 tested, 0.02% active. AID 540277, 2011; active means potentiation above 80%; inconclusive means 30% to 80%; inactive means below 30%; also: 0% is about no effect
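Cells expressing TRPV1 were dye-loaded with Fluo-8 and read kinetically: 10 s baseline, 3 min after compound (agonist portion), then 2 min after EC20 capsaicin (allosteric enhancer portion). Calcium-bound dye fluorescence at 480/520 nm.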
TRPML1 inh: qHTS for Inhibitors of the Human Mucolipin Transient Receptor Potential 1 (TRPML1). TRPML1-inducible cells, Ca2+ dye fluorescence, FDSS; stronger effect = lower value; inhibition of EC80 agonist-evoked calcium signal. 390,000 tested, 0.02% active. activity change, negative = inhibition, % (test concentration not listed); in the data active means activity change below about -50%; inconclusive means about -30% to -50%; inactive means above about -30%;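 also: stimulus is agonist 54-4 at its EC80 concentration; % is scaled to controls: 0 for no effect and ±100 for the full control effect; compound concentration not given in the record; the text of the record puts the active cut at -80%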
Target sequence (Q9GZU1 whole entry, looked up): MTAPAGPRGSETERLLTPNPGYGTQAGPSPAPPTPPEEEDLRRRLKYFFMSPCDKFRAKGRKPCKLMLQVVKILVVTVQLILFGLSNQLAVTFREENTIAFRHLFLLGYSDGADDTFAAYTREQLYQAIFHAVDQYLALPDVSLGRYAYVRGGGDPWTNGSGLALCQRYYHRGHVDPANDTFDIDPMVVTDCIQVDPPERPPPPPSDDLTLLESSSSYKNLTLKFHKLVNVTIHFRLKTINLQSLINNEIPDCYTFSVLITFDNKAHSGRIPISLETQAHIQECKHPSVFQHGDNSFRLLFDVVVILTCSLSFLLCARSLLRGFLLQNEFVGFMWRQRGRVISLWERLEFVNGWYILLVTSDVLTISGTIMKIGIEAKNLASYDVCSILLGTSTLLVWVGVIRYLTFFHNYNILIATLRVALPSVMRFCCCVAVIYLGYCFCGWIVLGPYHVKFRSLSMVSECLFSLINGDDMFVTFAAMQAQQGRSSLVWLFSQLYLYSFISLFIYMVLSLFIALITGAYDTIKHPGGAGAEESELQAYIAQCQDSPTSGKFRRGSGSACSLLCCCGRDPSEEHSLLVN
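Tet-induced TRPML1-DL cells loaded with Ca8 no-wash calcium dye were read kinetically on FDSS. Compound addition was followed by EC80 agonist 54-4 (4 uM final); inhibition was read over 110 s.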
PINK1 modulator: A Quantitative High throughput Screen to Identify Chemical Modulators of PINK1 Expression; PINK1 immunofluorescence, high-content cytometry, 24 h; Potency, µM (series often up to 76.6 µM), inactives show top-dose activation (PINK1 increase), actives largely listed as activators; 410,000 tested, 0.2% active; AID 624263, 2012; active = well fitted activation curve with a large enough effect; inconclusive = small, poorly fitted or top-dose-only effect; inactive = flat fitted curve, though single readings scatter; cell line not stated here;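 also: potency is read from the fitted curve at half-maximal effect; % of control where 0% means no effect; nearly all actives have a fitted effect of over 65% in size; a mitochondrial uncoupler was the plate control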
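Stable cell line treated 24 h with compounds at 5 concentrations (CCCP controls), then fixed and immunostained for PINK1 plus nuclear and cell stains; PINK1 immunofluorescence quantified by laser-scanning microplate cytometry.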
TRPML1 ag: qHTS for Agonists of the Human Mucolipin Transient Receptor Potential 1 (TRPML1) | 410,000 tested, 0.12% active | activation, % (no concentration beside the values) | AID 624414, 2012 | TRPML1-expressing cells, Ca2+ dye fluorescence, FDSS; host cell line not named in the record; reference of the full effect not given here; in the data active = activation above about 50%; inconclusive = about 30% to 50%; inactive = below about 30%; also: 0% is about no effect; the text of the record puts the active cut at 80%
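Cells: TRPML1-DL, 1X Tet inducer, ~16 h at 37 degrees C/5% CO2. Dye: ABD Ca8 no-wash + quencher, 45-90 min RT. Read: 10 s baseline, compound add, 110 s agonist phase; 54-4 EC80 (4uM final), 110 s antagonist phase.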
Sfp PPTase inh: qHTS Assay for Inhibitors of Bacillus subtilis Sfp phosphopantetheinyl transferase (PPTase); 4'-phosphopantetheinyl transferase ffp (Bacillus subtilis), Q9F4F7; Biochemical Sfp PPTase activity, qHTS; Potency, µM, for the others: max response, negative = inhibition, actives largely listed as inhibitors; 310,000 tested, 3.5% active; AID 1490, 2009; active = well fitted inhibition curve with a large enough effect; inconclusive = small, poorly fitted or top-dose-only effect, or another doubt; inactive = no such curve, though single readings can be large or run the other way;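 also: the enzyme is Sfp with the accession as filed and its product quenches rhodamine fluorescence; potency is read from the fitted curve at half-maximal effect; 0% = enzyme reaction without inhibitor and -100% = no enzyme wells; top concentration of the series not given in the record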
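Reaction rates are the 30-min fluorescence difference (ex 525, em 598 nm) in wells containing 15 nM Sfp, 5 uM rhodamine-CoA and 12.5 uM BHQ-2-YbbR at pH 7.6 with 10 mM MgCl2.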
ClpP mod: qHTS Assay for Activators of ClpP; AID 651965, 2013; Potency, µM (series often up to 57.5 µM), for inactives: top-dose activity change, negative = active; ATP-dependent Clp protease proteolytic subunit (Bacillus subtilis (strain 168)), P80244; 340,000 tested, 1.9% active; purified B. subtilis ClpP, FRET peptide cleavage, 20 min; active = well fitted falling curve with a large enough effect; inconclusive = small, poorly fitted or top-dose-only effect; inactive = no such curve, though single readings can be large or run the other way; also: potency is read from the fitted curve at half-maximal effect; the source files actives as falling curves though it sought activators and does not explain the sign; nearly all actives have a fitted effect of over 65% in size; many hits overshoot -100%
Target sequence (P80244 whole entry, looked up): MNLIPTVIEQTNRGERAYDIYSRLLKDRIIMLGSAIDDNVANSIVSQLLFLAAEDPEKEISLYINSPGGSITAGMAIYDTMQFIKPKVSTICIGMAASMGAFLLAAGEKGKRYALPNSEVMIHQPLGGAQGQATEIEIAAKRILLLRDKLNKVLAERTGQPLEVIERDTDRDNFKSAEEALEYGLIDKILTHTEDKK
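ClpP 10 microg/mL final, pH 8 Tris/KCl buffer with BSA, glycerol, Tween-20; compound pinned in; FRET-FV substrate; RT 20 min; Ex320/Em430; ΔFRET vs ADEP 5.8 microM, DMSO, no enzyme.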
Active calls of the source: *; ? = inconclusive; / = not tested or not shown; & = joins results of further samples.

SMILES	Menin MLL FP FL	TRPV1 potentiator	TRPML1 inh	PINK1 modulator	TRPML1 ag	Sfp PPTase inh	ClpP mod
CCN(CC)CCNC(=O)CCc1nnc2ccc(N3CCC(C)CC3)nn12	-2.0	-7	-21	-0.8%	1.5	4%	-0.2%
COc1ccc(/C=C2/SC(=O)N(CCNC(=O)C3COc4ccccc4O3)C2=O)cc1 (configuration not stated)	7.2	0	8	11%	2.6	9%	1.2%
O=C1CCCN1C(=O)COc1ccc([N+](=O)[O-])cc1	/	2	-14	-0.4%	1.0	/	/
CC1(c2ccccc2Cl)NC(=O)N(CC(=O)NC(=O)NCc2ccco2)C1=O (configuration not stated)	2.9	17	-2	0.7%	1.2	79µM*	1.4%
CCCCN(C(=O)c1ccc(-c2ccc(Cl)cc2)o1)c1c(N)n(CCC)c(=O)[nH]c1=O	/	1	-3	6.5%	2.6	/	14%
CCc1nnc(NS(=O)(=O)c2ccc(NC(=O)OC)cc2)s1	-1.7	3	-6	?	-0.1	-14%	1.5%
Cc1ccccc1CNC(=O)c1cc2cc(S(=O)(=O)N3CCCCC3)ccc2n1C	/	/	4	2.1%	-0.3	/	?
O=C(CSc1nnc(CNC(=O)c2cccs2)o1)Nc1cccc(C(F)(F)F)c1	9.1	-24	-2	1.3%	-0.9	14%	0.3%
C(=N\Nc1ccccn1)/c1ccc2c(c1)OCCO2	0.5	3	0	1.7%	0.5	-42%	/
COC(=O)Cc1ccc(NC(C)=O)cc1	/	-1	-4	0.0%	0.2	/	-3.8%
O=C(/C=C/C=C/c1ccc2c(c1)OCO2)N1CCCCC1	-9.2	20	/	0.3%	/	-10%	-9.0%
Cc1[nH]c(=O)c(C#N)c(C)c1[N+](=O)[O-]	-5.0	3	/	0.3%	/	17%	-0.1%
COc1ccc(CNC(=O)Cn2cccc2C(=O)c2ccccc2)cc1	2.8	-4	-8	0.2%	-1.2	24%	0.1%
COc1ccc2c(c1)C(SCC(=O)NCCc1ccc(Cl)cc1)CC(C)(C)O2 (configuration not stated)	2.7	-2	38	?	3.4	17%	-5.6%
Cc1cc(C)c2oc(C(=O)Nc3ccc(S(=O)(=O)N(C)c4ccccc4)cc3)cc(=O)c2c1	/	/	-21	-1.0%	1.4	/	-1.1%
CN(Cc1ccccc1Cl)C(=O)C1CCC(=O)N(C2CCCCCC2)C1 (configuration not stated)	1.8	-11	14	-1.3%	0.0	8%	0.9%
FC(F)(F)c1ccc(Cl)c(-n2c(Cc3cccs3)n[nH]c2=S)c1	3.0	5	-30	-0.7%	0.5	79µM*	-5.4%
CSc1nnc(-c2cc3c(s2)-c2ccccc2CC3)o1	2.8	-8	-9	0.1%	0.5	18µM*	-32%
C=CCn1c(SCC(=O)NC2CCS(=O)(=O)C2)nc2scc(C3CC3)c2c1=O (configuration not stated)	0.1	-11	-1	0.0%	0.7	0%	-1.8%
CCN(CC)S(=O)(=O)c1ccc2c(c1)c(=O)c(C(=O)N(C)Cc1ccccc1)cn2C	/	/	7	1.2%	-0.8	/	-14%
O=C(Nc1c2c(nn1-c1ccccc1)CS(=O)(=O)C2)c1ccccc1C(F)(F)F	/	14	-5	-2.2%	0.7	14%	-3.5%
CCOC(=O)c1c(N)n(-c2ccc(OCC)cc2)c2nc3ccccc3nc12	/	/	11	-0.5%	0.6	/	4.2%
COc1ccccc1-n1c(SCC(=O)Nc2ccc(C)cc2)nc(O)cc1=O	10	-4	-9&23	2.3%&0.3%	0.0&3.2	-4%	0.0%&-5.4%
O=C(Cc1cccc(NC(=O)C2CCCN(C(=O)C3CCC3)C2)c1)Nc1cccc(C(=O)N2CCCC2)c1 (configuration not stated)	/	2	-5	0.3%	0.5	/	1.7%
O=C(CN1C(=O)c2ccccc2C1=O)NC1(C(=O)O)CCCC1	/	/	44	-0.9%	-0.3	/	1.8%

As a short view, five of the compounds above.
SMILES	Menin MLL FP FL	TRPV1 potentiator	TRPML1 inh	PINK1 modulator	TRPML1 ag	Sfp PPTase inh	ClpP mod
Cc1ccccc1CNC(=O)c1cc2cc(S(=O)(=O)N3CCCCC3)ccc2n1C	/	/	4	2.1%	-0.3	/	?
O=C(CSc1nnc(CNC(=O)c2cccs2)o1)Nc1cccc(C(F)(F)F)c1	9.1	-24	-2	1.3%	-0.9	14%	0.3%
C(=N\Nc1ccccn1)/c1ccc2c(c1)OCCO2	0.5	3	0	1.7%	0.5	-42%	/
COC(=O)Cc1ccc(NC(C)=O)cc1	/	-1	-4	0.0%	0.2	/	-3.8%
O=C(/C=C/C=C/c1ccc2c(c1)OCO2)N1CCCCC1	-9.2	20	/	0.3%	/	-10%	-9.0%

New compounds follow
SMILES	Menin MLL FP FL	TRPV1 potentiator	TRPML1 inh	PINK1 modulator	TRPML1 ag	Sfp PPTase inh	ClpP mod
Cc1c2cnn(-c3ccccc3)c(=O)c2c(C)n1CCCC(=O)N1CCN(c2ncccn2)CC1	-0.5	-4	11	-0.4%	-0.7	25%	-4.0%
O=S1(=O)C[C@@H](N2CCC[C@@H]2CO)[C@H](COCc2ccccc2)N1	/	/	30	0.0%	1.1	/	-4.6%
CCOc1ccccc1NC(=O)CCc1c(C)nc2cc(-c3ccccc3)nn2c1C	/	/	30	3.4%	0.3	/	3.7%
Cc1nc(S(=O)(=O)Cc2ccc(Cl)cc2)nc2c1CCC2	1.9	10	-4	0.6%	-0.8	-5%	/
Cc1cc2nc(-c3ccc4c(c3)CCC4)ccn2n1	0.4	-4	-3	1.7%	-0.1	1%	/
Nc1nc(Nc2ccccc2F)nc(NCc2ccco2)c1[N+](=O)[O-]	-0.6	/	27	2.7%	4.2	1%	-1.8%
CCOC(=O)C1(CCCc2ccccc2)CCN(C(=O)CCC2=NNC(=O)CC2)CC1	1.0	1	-7	1.6%	0.2	3%	1.2%
Nc1cc(S(=O)(=O)N2CCOCC2)ccc1Oc1cccc(Br)c1	/	-19	-6	4.3%	0.2	/	-1.7%
Cc1c(NC(=O)C(C)NCC2CCCO2)c(=O)n(-c2ccccc2)n1C (configuration not stated)	7.9	14	11	2.1%	-0.7	-4%	-1.2%
COc1cccc(C(O)c2ncc(-c3ccc(Cl)cc3)[nH]2)c1 (configuration not stated)	/	/	/	0.1%	-0.6	/	-3.4%
Cc1ccc2nc(/C(C#N)=C/c3ccc(-c4ccc(C(=O)OC(C)C)cc4)o3)[nH]c2c1	/	/	-5	2.9%	13	/	46%
COc1ccc(O[C@@H]2O[C@H](COC(C)=O)[C@@H](OC(C)=O)[C@H](OC(C)=O)[C@H]2NC(C)=O)cc1	2.5	8	0	1.3%	-0.3	2%	0.8%
Cc1ccc(-n2cccc2C(=O)NS(=O)(=O)c2ccc(C)cc2)cc1	2.6	5	7	2.8%	0.5	-9%	1.9%
CC(C)NC(=O)N(C)C[C@H]1Oc2c(NC(=O)Nc3ccc4c(c3)OCO4)cccc2C(=O)N([C@H](C)CO)C[C@@H]1C	/	/	15	-0.6%	-0.5	/	-1.7%
O=c1c(=O)n(Cc2c(F)cccc2Cl)ccn1Cc1ccccc1	/	/	6	-0.8%	-0.2	/	2.3%
O=C(CCSc1nc(-c2ccco2)cc(C(F)(F)F)n1)N1CCN(c2ccccc2)CC1	3.8	?	13	-2.3%	3.6	-10%	-1.5%
COc1ccc(Nc2ccccc2N)cc1	13	-9	19	0.7%	2.9	-30%	-0.9%
COc1ccc(C(=O)N(Cc2ccccc2)Cc2ccc(OC)c(COc3ccc(NC(C)=O)cc3)c2)cc1	/	/	/	0.9%	-0.2	/	-2.2%
Cc1occc1C(=O)N1CCCC(CO)(Cc2ccc(F)cc2F)C1 (configuration not stated)	/	-2	1	1.0%	0.5	-3%	-4.0%
COc1ccc(/C=N/NC(=O)c2ccc3nc[nH]c3c2)cc1OC	-1.7	3	-8	0.5%	0.6	17%	-4.8%
C=CCN(c1ccccc1)S(=O)(=O)c1cccc(C(=O)Nc2ncccc2O)c1	/	-27	-3	-3.2%	0.3	/	/
Cc1csc(Sc2nc3c(c(=O)[nH]c(=O)n3C)n2Cc2ccccc2Cl)n1	-2.8	-5	-6	-1.0%	-1.4	10%	0.4%
Cc1ccc(O)c(-c2cc(C(=O)Nc3c(C)n(C)n(-c4ccccc4)c3=O)[nH]n2)c1	-1.3	5	34	3.1%	2.1	24%	-2.1%
CN(C)S(=O)(=O)N(CC(=O)Nc1ccccc1F)c1ccccc1	-1.4	1	-8	0.7%	0.5	12%	1.9%
COc1ccc(S(=O)(=O)N2CCN(C(=O)c3cccnc3)CC2)cc1OC	2.1	7	29	-0.4%	0.0	9%	0.8%

The listing continues:
SMILES	Menin MLL FP FL	TRPV1 potentiator	TRPML1 inh	PINK1 modulator	TRPML1 ag	Sfp PPTase inh	ClpP mod
CC1(c2ccccc2Cl)NC(=O)N(CC(=O)NCc2ccco2)C1=O (configuration not stated)	-0.5	12	-10	-0.5%	-0.4	9%	/
CCOc1ccc2nc(-c3ccccc3)nc(SCC(=O)OC)c2c1	-3.3	2	-2	9.9%	-0.6	3%	2.9%
Cc1coc2c1c(C)cc1oc(=O)c(CC(=O)NCC(=O)NCC(=O)O)c(C)c12	-4.2	17	16	0.2%	1.2	5%	/
C/C(N)=C(/C#N)C(=O)CSc1nc2cc(Cl)ccc2c(=O)n1Cc1ccco1	-1.0	-4	-9	7.5%	-0.4	?	-2.8%
CCc1c(C)[nH]c(=S)c(C#N)c1C	-0.1	8	2	-0.9%	0.2	13µM*	-0.1%
CCCc1ccc(OCC(=O)Nc2sc(C(=O)OCC)c(C)c2C(=O)OCC)cc1	/	/	13	0.1%	0.5	/	-3.2%
CC(=O)Nc1nnc2n1CCS2	/	/	-7	-4.6%	2.6	/	-1.8%
COc1ccccc1Cn1c(=S)[nH]c2ccc(Br)cc2c1=O	1.4	2	15	11%	-0.2	19%	/
O=C(Nc1ccc(-c2nc3cc(NC(=O)c4ccc(F)cc4)ccc3o2)cc1)c1ccc(F)cc1	/	/	-21	-1.0%	0.2	/	?
